Mtb growth – M. tuberculosis H37Rv growth inhibitors, H37Rv strain (AID 1626); M. tuberculosis H37Rv growth inhibition; higher % means a stronger effect; inhibition, % at 10 µM, or IC50 in µM where a hit was titrated; 220,000 tested, 0.95% active;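 active = confirmed in a dose series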;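 note: bacteria incubated seven days before Alamar blue readout; 0% = bacteria only wells and 100% = bacteria with antibiotic wells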
Mtb bLac sens – beta-lactam sensitization of Mtb H37Rv, H37Rv; inhibition, % at 25 µM; 330,000 tested, 0.27% active; AID 434955, 2010; M. tuberculosis H37Rv growth with meropenem, percent inhibition; hits of this screen are not shown here;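 active = about 74% or more and at least 40 points above the plate without the antibiotic, then above 30% in a dose series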;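 note: growth measured after seven days incubation then overnight dye step; 0% = bacteria only wells and 100% = bacteria with antibiotic; twin plates without the antibiotic show which effects depend on it; some results filed as inactive read as strong as hits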
RecA intein inh – Mtb RecA intein splicing inhibitors, primary screen, biochemical, fluorescence, HTS. cell-free RecA intein splicing. inhibition, %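 (about 9 µM by stock and volumes)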. Protein RecA (Mycobacterium tuberculosis (strain ATCC 25618 / H37Rv)), P9WHJ3. 290,000 tested, 0.75% active. AID 2221, 2009; in the data active = inhibition above about 30%;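 note: 0% = vehicle wells and 100% = reference inhibitor control wells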
Target sequence (P9WHJ3 whole entry, looked up): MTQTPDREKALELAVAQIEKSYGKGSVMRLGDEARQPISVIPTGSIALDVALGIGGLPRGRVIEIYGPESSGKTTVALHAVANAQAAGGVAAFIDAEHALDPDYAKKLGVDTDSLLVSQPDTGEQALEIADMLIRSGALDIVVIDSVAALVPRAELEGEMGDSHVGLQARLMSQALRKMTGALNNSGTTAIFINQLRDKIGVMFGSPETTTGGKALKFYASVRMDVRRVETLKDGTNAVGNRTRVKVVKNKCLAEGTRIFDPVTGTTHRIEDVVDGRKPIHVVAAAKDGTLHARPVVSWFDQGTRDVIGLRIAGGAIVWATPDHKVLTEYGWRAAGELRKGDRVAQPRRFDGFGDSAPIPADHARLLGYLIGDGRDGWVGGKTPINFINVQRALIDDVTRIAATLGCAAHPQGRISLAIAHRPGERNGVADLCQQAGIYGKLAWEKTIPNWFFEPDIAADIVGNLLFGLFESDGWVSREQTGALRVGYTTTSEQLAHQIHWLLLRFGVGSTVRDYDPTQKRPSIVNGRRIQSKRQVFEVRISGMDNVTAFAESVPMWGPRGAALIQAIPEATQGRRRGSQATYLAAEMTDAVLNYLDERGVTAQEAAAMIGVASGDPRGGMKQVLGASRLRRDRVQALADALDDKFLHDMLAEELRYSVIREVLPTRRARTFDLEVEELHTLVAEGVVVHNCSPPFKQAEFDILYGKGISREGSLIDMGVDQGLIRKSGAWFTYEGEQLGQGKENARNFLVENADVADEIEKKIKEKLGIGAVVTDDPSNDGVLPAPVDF
Arbovirus inh – antivirals against arbovirus infection, primary screen, cell-based, full library, 10K replicate subset. arbovirus infection cell-based antiviral screen. inhibition, % at 10 µM. 200,000 tested, 0.37% active. AID 1251, 2008;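 active = inhibition from about 30%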;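 note: bluetongue infection of BSR cells; cell survival read as ATP light after 72 h; 0% = infected wells without compound and 100% = uninfected wells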
YopH inh – YopH tyrosine phosphatase inhibitors, primary screen, biochemical, fluorescence Ex485/Em525 | inhibition, %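 (about 10 µM by stock and volumes)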 | 140,000 tested, 0.16% active | AID 898, 2007 | YopH tyrosine phosphatase [Yersinia enterocolitica];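 active = inhibition of 50% or more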;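 note: controls were vehicle for no effect and minimum signal wells for full effect; inactives centre near -20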
Arbovirus inh repeat – also measured in Arbovirus inh; calls as there; inhibition, %; measured here: 10K subset replicate screen; many hits read low in the repeat;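 first of two repeat runs on a subset; 0% = infected and 100% = uninfected wells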
An asterisk follows results filed as active; . = not tested or not shown. Only part of the results is shown. The share of hits here may be higher or lower than overall.

SMILES	Mtb growth	Mtb bLac sens	RecA intein inh	Arbovirus inh	YopH inh	others
Cc1ccc(-n2ncc3c2CCCC3NC(=O)CCn2ccnc2C)cc1C (centres undefined)	.	-3	8.7	.	.
Cn1c(CN2CCN(CCO)CC2)c(C#N)c2ccccc21	-9%	0	0.0	.	.
Cc1nn(C/C(C#N)=N\O)c(C)[n+]1N	0%	0	1.6	4	-14
O=C(N/C(=C\c1cccnc1)C(=O)N1CCOCC1)c1cccc(Br)c1	-4%	7	0.3	6	-29
Cc1cc(=O)oc(C)c1C(=O)NCc1c(F)cc(F)cc1F	-9%	.	2.4	2	-18
COC(=O)c1ccc(NC(=O)COC(=O)C2CC(=O)N(Cc3ccccc3)C2)cc1 (centres undefined)	4%	0	9.4	3	.
Cc1c(NC(=O)CSc2ccccc2Cl)c(=O)n(-c2ccccc2)n1C	-3%	-6	-0.8	0	.
COc1ccc(C(NC(=O)C(C)C)c2c(O)ccc3ccccc23)cc1OC (centres undefined)	5%	-10	-2.8	4	-3
CN(C(=O)CCNC(=O)Cn1cnc2ccccc2c1=O)c1ccc(Br)cc1	.	-3	-1.1	.	.
O=C(CSc1nnc(Cc2ccccc2)n1Cc1ccco1)NC12CC3CC(CC(C3)C1)C2	12%	-2	7.5	-8	-16
COc1ccc([N+](=O)[O-])cc1C(=O)NCCOc1ccc(Cl)cc1	.	6	-1.1	.	.
CCOc1ccc(-c2nnn(CC(=O)c3ccc4c(c3)OCCO4)n2)cc1OCC	-15%	6	3.3	-9	-31
CC(CNC(=O)CC(C)(C)C)NC(=O)CC(C)(C)C (centres undefined)	-8%	-8	-2.0	2	15
Cn1c(=O)oc2cc(S(=O)(=O)NCC3CCCO3)ccc21 (centres undefined)	-4%	-3	-2.6	.	-33
Cc1ccc(C)c(S(=O)(=O)N(C(=O)c2ccncc2)c2ccc(OC(=O)c3ccncc3)cc2)c1	-8%	10	6.3	1	.
CCCCOc1ccc(CSC2=NCCN2)cc1[N+](=O)[O-]	-3%	1	9.9	-5	-30
CCCc1nc2oc3c(NCCCN(C)C)ncnc3c2c2c1CCCC2	8%	2	1.2	.	.
O=C(Nc1ccccc1O)c1ccc2c(c1)C(=O)N(N1C(=O)c3ccccc3C1=O)C2=O	.	3	-1.0	.	.
O=C(COC(=O)Cc1ccc(Br)cc1)NC12CC3CC(CC(C3)C1)C2	.	13	.	5	5
CC1CCCC(C)N1CCNC(=O)CCc1nnc2n(Cc3ccccc3)c(=O)c3ccccc3n12 (centres undefined)	.	6	-0.7	.	.
CCCCC(=O)Nc1cccc(NC(=O)c2cccc(Br)c2)c1	16%	3	1.9	-5	.
CC1CCCCC1NC(=O)CCCCn1c(=O)[nH]c2ccsc2c1=O (centres undefined)	.	6	2.8	.	.
O=C(CSc1nccc(=O)[nH]1)N1CCCc2ccccc21	-7%	3	1.1	4	-18
COCCNC(=O)c1c(CSc2ccc(F)cc2)noc1C(=O)NCc1ccccc1	-4%	-3	0.7	-2	5
CCc1nnc(NC(=O)CSc2nnc(-c3ccccc3OC)n2-c2ccc(C)cc2)s1	2%	-4	2.4	3	-37
COC(=O)/C(=C1/Oc2cc3c(cc2S1)OCO3)C(F)(F)F	-1%	10	-0.4	13	-51
CC(=O)Nc1ccc(S(=O)(=O)Oc2ccc(C(=S)N3CCC(O)CC3)cc2)cc1	-2%	6	-8.4	17	-21
COc1ccc(C2=NN(C(=O)c3cccs3)C(O)(C(F)(F)F)C2)cc1 (centres undefined)	27%	5	3.5	9	.
Cc1cc2ccccc2n2c(SCC(=O)NCc3cccs3)nnc12	-4%	-9	0.8	-2	7
COc1ccc(NC(=O)Cn2cnc3c(cnn3C(C)(C)C)c2=O)cc1OC	-5%	-2	0.8	7	.

Two compounds picked at random from those above:
SMILES	Mtb growth	Mtb bLac sens	RecA intein inh	Arbovirus inh	YopH inh	others
CCc1nnc(NC(=O)CSc2nnc(-c3ccccc3OC)n2-c2ccc(C)cc2)s1	2%	-4	2.4	3	-37
CCCCOc1ccc(CSC2=NCCN2)cc1[N+](=O)[O-]	-3%	1	9.9	-5	-30

(further entries)
SMILES	Mtb growth	Mtb bLac sens	RecA intein inh	Arbovirus inh	YopH inh	others
C=CCc1ccc(OCCOCCN(C)C)c(OC)c1	-4%	4	-2.0	-2	-8
CN(CC(=O)Nc1cccc(F)c1)C(=O)/C=C/c1cn(Cc2ccccc2)nc1-c1cccnc1	.	4	6.0	.	.
Cc1ccc(C)n1-c1ccccc1N	3%	-5	.	1	-31
Cc1ccc(NS(=O)(=O)c2cccc(C(=O)NCc3ccccn3)c2)cc1	.	-9	2.6	.	.
O=C(COC(=O)c1cccc(S(=O)(=O)N2CCOCC2)c1)Nc1nc(-c2ccccc2Cl)cs1	-7%	-12	.	1	-172
CC(C)C[C@H](NC(=O)C1CC(=O)N(c2ccc3c(c2)OCO3)C1)C(=O)NC1CCCCC1 (some centres undefined)	.	-10	0.8	.	.
Cc1ccc(CSC2=NCCN2C(=O)c2ccco2)cc1	-5%	-2	2.9	1	-26
C[C@@H](C(=O)OCC(=O)NCCc1ccc(S(N)(=O)=O)cc1)N1C(=O)C2CCCCC2C1=O (some centres undefined)	-20%	4	5.2	9	.
CCC(NC(=O)Nc1cc(C)on1)(C(F)(F)F)C(F)(F)F	4%	-12	0.0	.	.
O=[N+]([O-])c1ccc(N2CCN(S(=O)(=O)c3ccccc3)CC2)cc1NCCN1CCOCC1	-4%	-5	2.1	9	-28
COC(=O)c1ccc(NC(=O)c2ccc(OC(C)=O)c(OC)c2)cc1	-3%	-2	2.9	-5	.
O=C(CSc1nnc(-c2ccncc2)n1Cc1ccco1)Nc1ccccc1Cl	5%	-4	3.5	7	-47
O=C(COc1ccc2c(c1)CCC2)N1CCN(c2ccc(F)cc2)CC1	.	-12	1.8	.	.
O=C(C1CCC(=O)N(C2CC2)C1)N1CCN(c2cccc(Cl)c2)CC1 (centres undefined)	.	6	-2.1	.	.
CCOC(=O)c1c(C)[nH]c(C(=O)OCC(=O)c2ccccc2)c1C	.	7	0.3	.	.

Compounds shown so far that contain two or more sulfur atoms, in the order listed:
SMILES	Mtb growth	Mtb bLac sens	RecA intein inh	Arbovirus inh	YopH inh	others
CCc1nnc(NC(=O)CSc2nnc(-c3ccccc3OC)n2-c2ccc(C)cc2)s1	2%	-4	2.4	3	-37
CC(=O)Nc1ccc(S(=O)(=O)Oc2ccc(C(=S)N3CCC(O)CC3)cc2)cc1	-2%	6	-8.4	17	-21
Cc1cc2ccccc2n2c(SCC(=O)NCc3cccs3)nnc12	-4%	-9	0.8	-2	7
O=C(COC(=O)c1cccc(S(=O)(=O)N2CCOCC2)c1)Nc1nc(-c2ccccc2Cl)cs1	-7%	-12	.	1	-172

(more compounds)
SMILES	Mtb growth	Mtb bLac sens	RecA intein inh	Arbovirus inh	YopH inh	others
Cc1ccc(NC(=S)Nc2ccc3[nH]c(=O)[nH]c3c2)cc1C	4%	3	-10	.	.
COc1cc(/C=C/c2[nH]c(=O)[nH]c(=O)c2[N+](=O)[O-])cc(OC)c1O	.	3	-6.3	.	.
O=C1Nc2c(c(=O)[nH]c(=O)n2Cc2ccccc2)C1(NS(=O)(=O)c1ccccc1)C(F)(F)F (centres undefined)	0%	-11	-2.5	6	.
COc1ccccc1C(=O)Nc1ccc2c(c1)C(=O)NC2=O	.	0	-6.3	.	.
Cc1cccc(CNC(=O)CCCn2nc(C)c3c(C)n(-c4ccccc4)nc3c2=O)c1	.	-4	0.4	.	.
COc1cc(OC)cc(C(=O)Nc2ccc(N3CCN(C(=O)c4cccs4)CC3)cc2)c1	.	63	-1.7	.	.
CCOc1ncccc1C(=O)Nc1cccc(Cl)c1Cl	6%	4	-0.5	-2	.
O=C(CCC1CCCN(C(=O)c2cccc(F)c2)C1)N1CCN(c2ccccn2)CC1 (centres undefined)	.	-4	1.1	.	.
CC1(C)NC(=O)N(CCOc2cccc(Cl)c2Cl)C1=O	-4%	-16	2.0	2	6
O=C(N/N=C/c1ccc(N2CCCCC2)o1)C(O)(c1ccccc1)c1ccccc1	-7%	-10	8.0	1	-11
CCOC(=O)N1CCN(C(=O)c2cn(-c3ccc(C)c(C)c3)c(=O)c3ccccc23)CC1	14%	.	.	-5	-11	Arbovirus inh repeat=1
Cc1ncc(C23CC4CC(CC(C4)C2)C3)[nH]1	-1%	77	-0.1	5	-42
NS(=O)(=O)c1cccc(NC(=O)CSc2ncc(C(F)(F)F)cc2Cl)c1	0%	-8	1.0	-14	-35
O=C1Nc2ccccc2C1=O	-11%	-8	3.6	.	.
CCCc1c(C)[nH]c2nc3ccccc3n2c1=O	.	6	0.5	.	.

The last 4 entries of the part above lead into the next:
SMILES	Mtb growth	Mtb bLac sens	RecA intein inh	Arbovirus inh	YopH inh	others
Cc1ncc(C23CC4CC(CC(C4)C2)C3)[nH]1	-1%	77	-0.1	5	-42
NS(=O)(=O)c1cccc(NC(=O)CSc2ncc(C(F)(F)F)cc2Cl)c1	0%	-8	1.0	-14	-35
O=C1Nc2ccccc2C1=O	-11%	-8	3.6	.	.
CCCc1c(C)[nH]c2nc3ccccc3n2c1=O	.	6	0.5	.	.
COc1ccc(-c2nn(-c3ccccc3)cc2/C=C(\CC(=O)O)c2nc3ccccc3s2)cc1OC	11%	9	-2.3	-5	.
CCOC(=O)Cn1c(=O)oc2cc(S(=O)(=O)NCc3ccccn3)ccc21	-9%	1	0.1	0	-48	Arbovirus inh repeat=-1
CCC(C)NS(=O)(=O)c1ccc(NS(C)(=O)=O)cc1 (centres undefined)	-5%	-1	18	2	3
CCc1cc2c(COC(=O)c3c(C)noc3C)cc(=O)oc2cc1O	4%	0	-12	-30	.
O=C(NCc1ccco1)C(c1cccs1)N(Cc1ccccc1)C(=O)Cn1nnc2ccccc21 (centres undefined)	-1%	-6	3.8	3	-43
Cn1c(SCCOc2ccc(F)cc2)nnc1-c1ccncc1	.	-4	-15	.	.
CCOC(=O)c1sc(N)c(C(=O)OC)c1C	-3%	-5	1.5	-9	.
Cc1ccc(S(=O)(=O)CCC(=O)OCC(=O)N(Cc2ccccc2)C(C)C)cc1	.	3	1.4	.	.
Cc1cc(Oc2ccc(OCC(N)=O)nn2)nc(Cl)n1	-2%	-3	2.6	0	.
CCCc1ccc(C(=O)/C=C/N(C)C)cc1	2%	-2	0.2	6	.
COc1ccc(CNc2nc(-c3cccnc3)nn2C(=O)c2cccs2)cc1	.	-5	3.7	0	-5
Cc1cccc2cc3c(N)c(C#N)sc3nc12	3%	1	-5.5	4	-6
COc1ccc(C2N3CC4(C)CN2CC(C)(C3)C4)cc1OC (centres undefined)	-9%	-2	1.4	7	-43	Arbovirus inh repeat=3
Cc1ccc(S(=O)(=O)NC(CC(=O)O)c2ccccc2)c(C)c1 (centres undefined)	-6%	4	-3.0	5	-15
CC(=O)c1cccc(NC(=O)Cn2nc(-c3ccccc3Cl)ccc2=O)c1	-5%	31	2.1	-4	.
CCOCCCNc1nc(=S)[nH]c2cc(OC)c(OC)cc12	-10%	-3	-0.1	-7	3
O=C1CSC(c2cccs2)N1c1ccccc1 (centres undefined)	2%	3	1.1	4	-56
Cc1nn(-c2ccccc2)c2c1C(c1ccco1)C(C#N)=C(N)O2 (centres undefined)	8%	-12	68*	-3	-9
CCOc1ccc(-n2c(=S)sc3c(=O)n(-c4ccccc4)c(SCC(=O)O)nc32)cc1	.	-3	-27	.	.
OC1(c2ccccc2)CCN(Cc2ccccc2)CC1	1%	1	.	14	.
CCn1cc(C2CC(=O)NC2=O)c2ccccc21 (centres undefined)	7%	-2	-1.2	.	.
CCN1CCN(Cc2c(O)ccc3c(=O)c(-c4ccccc4OC)coc23)CC1	-5%	4	0.2	20	-35
Cc1ccc(O)c(NS(=O)(=O)c2cccc3nsnc23)c1	.	8	-5.3	.	.
Cc1cc(C(=O)Nc2ccccc2C)n(-c2ccccc2)n1	.	-2	1.2	.	.
O=C(O)c1ccccc1N/N=C\c1ccnc2ccccc12	2%	15	-1.6	31*	-11
COc1ccc(-c2nn(-c3ccccc3)cc2/C=C(/C#N)C(N)=O)cc1[N+](=O)[O-]	7%	10	-0.4	-1	-19
CCCCOC(=O)Cn1cnc2ccc(Br)cc2c1=O	-5%	-12	-1.0	3	-50
COCc1cc(C)nc(OCC(=O)N/N=C/c2ccc(C)o2)c1C#N	-6%	3	2.7	5	.
Cc1ccccc1CC1(CO)CCCN(Cc2ccc(C#CC(C)(C)O)cc2)C1 (centres undefined)	8%	5	.	-16	.
CCn1c(SCC(=O)Nc2sc3c(c2C#N)CCC(C(C)(C)C)C3)nnc1-c1ccco1 (centres undefined)	4%	-1	-3.3	-15	-35
COc1ccc(CCn2c(C)cc(C(=O)CSc3nc(N)cc(=O)[nH]3)c2C)cc1	6%	17	6.4	10	-37
CCCN(CCC)Cc1cc(=O)oc2cc3c(cc12)CCC3	-6%	-2	6.8	.	.

Compound activity (PubChem BioAssay)
